From PubChem
Six1-Eya2 blk – blocks human Six1 binding to Eya2; AlphaScreen GST-Six1/His-Eya2 binding, biochemical; hits give low values; control for the full effect not named in the record; activity change, % (test concentration not listed); 0.56% of 360,000 active; AID 651725; in the data active = activity change below about -65%; inconclusive = about -30% to -65%; inactive = above about -30%; also: % is scaled to controls: 0 for no effect and ±100 for the full control effect; compound concentration not given in the record
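Compounds are tested against tagged Six1 and Eya2 proteins bridged by glutathione donor and nickel acceptor beads; after a one-hour incubation at 37 °C without light, AlphaScreen emission is recorded.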
D2 agonist – human D2 receptor agonism in beta-arrestin assay. DiscoveRx PathHunter D2 beta-arrestin, luminescence, 90 min; 100% = 57 uM dopamine signal. activation, % (concentration not given with the values). 0.084% of 360,000 active. AID 624465; in the data active = activation above about 40%; inconclusive = about 15% to 40%; inactive = below about 15%; also: compound concentration not given in the record; the text of the record calls up to 30% inactive
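DiscoveRx PathHunter D2 beta-arrestin cells (2,100/well) attached overnight, then compound-stimulated 90 min at 37 C in HBSS/10 mM HEPES/0.1% Tween-20 buffer; beta-galactosidase complementation read by luminescence after 1 h at ambient temperature. Dopamine 57 uM final (EC100) as control.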
D2 PAM – positive allosteric modulators of human D2 dopamine receptor; P14416; DiscoveRx D2 beta-arrestin cells, luminescence, 90 min; 100% = 57 uM dopamine signal; potentiation, % (concentration not given with the values); 0.23% of 360,000 active; AID 624464; active = potentiation of 50% or more; inconclusive = 30% to 50%; inactive = 30% or less;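 also: compound concentration not given in the record; tested on top of an EC20 dose of dopamine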
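PathHunter D2 cells, attached overnight at 37 deg C, received compound in DMSO plus dopamine at EC20 (50 nM final) for 90 min at 37 deg C. Beta-arrestin recruitment was read as luminescence after 1 h with detection reagent at ambient temperature.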
CtBP-E1A blk – inhibitors of CtBP/E1A interaction; AID 651724; activity change, % (concentration not given with the values); 0.49% of 340,000 active; AlphaScreen GST-E1A/His-CtBP binding, 1536-well; hits give low values; control for the full effect not named in the record; in the data active means activity change below about -65%; inconclusive means about -30% to -65%; inactive means above about -30%; also: % is scaled to controls: 0 for no effect and ±100 for the full control effect
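GST-E1A and His-tagged CtBP (125 nM each as 5X stock) were preincubated with pin-transferred compound for 2 h at 37 °C in the dark, then glutathione donor and nickel acceptor beads were added for 1 h before AlphaScreen reading.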
Sfp inh – Sfp phosphopantetheinyl transferase inhibition. Q9F4F7. Biochemical Sfp PPTase activity, qHTS. Potency, µM, inactives show max response, negative = inhibition, actives largely listed as inhibitors. 3.5% of 310,000 active. AID 1490; active = well fitted inhibition curve with a large enough effect; inconclusive = small, poorly fitted or top-dose-only effect, or another doubt; inactive = no such curve, though single readings can be large or run the other way;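 also: the enzyme is Sfp with the accession as filed and its product quenches rhodamine fluorescence; potency is read from the fitted curve at half-maximal effect; 0% = enzyme reaction without inhibitor and -100% = no enzyme wells; top concentration of the series not given in the record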
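After 15 min at room temperature with compound, 15 nM Sfp received 5 uM rhodamine-CoA plus 12.5 uM BHQ-2-ybbR (50 mM Hepes pH 7.6, 10 mM MgCl2). Rate came from the fluorescence difference over 30 min, ex 525/em 598 nm.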
TRPV1 PAM – enhances activation of the human vanilloid receptor TRPV1; AID 540277; TRPV1-expressing cells, Fluo-8 calcium influx, capsaicin EC20 potentiation; host cell line not named in the record; control for the full effect not named in the record; potentiation, % at 8.33 µM; 0.02% of 320,000 active; Q8NER1; active means potentiation above 80%; inconclusive means 30% to 80%; inactive means below 30%; also: 0% is about no effect
Target sequence (Q8NER1 whole entry, looked up): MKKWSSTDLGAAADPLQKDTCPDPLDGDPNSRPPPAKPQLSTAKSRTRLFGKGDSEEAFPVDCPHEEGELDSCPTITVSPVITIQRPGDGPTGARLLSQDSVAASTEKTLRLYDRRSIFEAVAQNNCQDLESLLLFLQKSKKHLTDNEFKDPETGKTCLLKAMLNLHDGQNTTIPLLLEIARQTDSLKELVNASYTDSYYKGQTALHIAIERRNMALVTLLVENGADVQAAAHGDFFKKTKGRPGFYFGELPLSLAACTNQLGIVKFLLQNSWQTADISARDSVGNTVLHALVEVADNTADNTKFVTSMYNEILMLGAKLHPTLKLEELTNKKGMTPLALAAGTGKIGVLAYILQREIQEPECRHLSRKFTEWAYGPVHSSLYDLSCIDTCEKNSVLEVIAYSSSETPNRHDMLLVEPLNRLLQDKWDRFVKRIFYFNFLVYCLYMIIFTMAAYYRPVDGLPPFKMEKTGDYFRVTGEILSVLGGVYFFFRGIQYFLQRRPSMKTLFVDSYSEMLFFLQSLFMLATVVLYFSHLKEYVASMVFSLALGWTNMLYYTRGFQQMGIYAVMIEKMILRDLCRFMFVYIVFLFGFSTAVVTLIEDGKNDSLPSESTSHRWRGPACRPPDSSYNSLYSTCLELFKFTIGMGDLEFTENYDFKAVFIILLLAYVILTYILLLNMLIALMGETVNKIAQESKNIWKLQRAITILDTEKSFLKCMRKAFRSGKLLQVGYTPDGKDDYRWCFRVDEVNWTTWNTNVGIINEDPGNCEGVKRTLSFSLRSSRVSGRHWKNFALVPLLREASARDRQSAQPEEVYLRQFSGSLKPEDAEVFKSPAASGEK
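Fluo-8 calcium influx in TRPV1-expressing cells, kinetic read (ex 480/em 520 nm). Compound added and read 3 min for agonist activity, followed by capsaicin at EC20 final and 2 min further read for enhancement.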
PINK1 expr mod – changes PINK1 expression | AID 624263 | PINK1 immunofluorescence, high-content cytometry, 24 h | 0.2% of 410,000 active | Potency, µM (series often up to 76.6 µM), for inactives: at the top dose activation (PINK1 increase), actives largely listed as activators; active = well fitted activation curve with a large enough effect; inconclusive = small, poorly fitted or top-dose-only effect; inactive = flat fitted curve, though single readings scatter; cell line not stated here;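 also: potency is read from the fitted curve at half-maximal effect; % of control where 0% means no effect; nearly all actives have a fitted effect of over 65% in size; a mitochondrial uncoupler was the plate control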
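Cells are seeded, rested 12 hours, then given compound at five concentrations or DMSO for 24 hours. After fixation, blocking and antibody staining, PINK1 amount and mitochondrial localization are scored; CCCP serves as control.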
The depositor's hits bear a star; ? = inconclusive; · = no result given; & = joins results of further samples; [ ] = dose if it differs, or a comment. Compounds as they come; about 3.7% have a hit in one of these screens.

SMILES	Six1-Eya2 blk	D2 agonist	D2 PAM	CtBP-E1A blk	Sfp inh	TRPV1 PAM	PINK1 expr mod
N/C(=N\NC(=O)c1cccs1)c1cc2ccccc2oc1=O	-20.3	-0.8	8.0	-6.1	-12.1%	9.7	2.8%
CC(Cc1c[nH]c2ccccc12)NC(=O)C1CCCNC1=O (stereo unspecified)	2.7	1.8	-10.0	10.4	-5.8%	0.5	·
Cc1ccc(C(=O)N(CC#N)CC#N)cc1C	4.4	0.8	2.1	1.0	3.8%	-3.3	-1.2%
CC1CN(C(=O)c2cccc(S(=O)(=O)N3CCN(c4ccc(F)cc4)CC3)c2)CC(C)O1 (stereo unspecified)	-1.5	0.0	-11.1	-3.9	11.5%	-14.4	-0.1%
COc1ccc(S(=O)(=O)N[C@@H](Cc2ccc(Cl)cc2)C(=O)N2CC[C@@]3(O)CCCC[C@H]3C2)cc1	13.7	-0.2	-3.6	-0.2	-16.1%	5.7	-1.9%
O=C1CCc2cc(S(=O)(=O)NCCC(=O)NC3CCCCC3)ccc2N1	1.1	2.3	3.1	0.0	9.0%	-6.0	-0.4%
Cc1ccc(S(=O)(=O)c2cn(Cc3ccc(F)cc3)c3cc4c(cc3c2=O)OCO4)cc1	-4.6	0.7	-9.0	-5.3	11.1%	22.0	2.3%
O=C(NNC(=O)c1ccncc1)Nc1ccc(N=Nc2ccccc2)cc1	-17.7	-3.1	-10.6	-14.8	·	·	4.3%
Cc1cc(C)nc(SC2CCOC2=O)n1 (stereo unspecified)	9.2	0.8	-2.1	4.4	8.1%	5.6	4.8%
O=C(Cn1cc(COc2ccc(-n3cccc3)cc2)nn1)NS(=O)(=O)c1ccccc1C(F)(F)F	-6.3	3.0	0.1	1.5	·	·	1.0%
Cc1[nH]c(-c2ccc3c(c2)OCO3)nc1C(=O)O	-0.6	-3.4	-4.5	1.6	56.2µM*	-0.5	1.3%
CC(=O)c1cc(C#N)c(Oc2ccccc2)nc1C	4.0	-5.4	-4.7	-1.3	·	·	-2.9%
O=C(NNc1ccccc1)NC(Cc1ccccc1)C(=O)O (stereo unspecified)	3.3	1.1	-2.2	-1.1	·	·	3.9%
CC(C)CC1C(=O)N(Cc2cn(CCC3OCCCO3)nn2)CCS(=O)(=O)N1Cc1ccc(-c2ccc(F)cc2)cc1 (stereo unspecified)	-0.2	-5.4	1.0	2.5	·	·	4.6%
C=C1[C@@H](O)[C@@H]2O[C@]3(CC[C@H](/C=C/[C@@H](C)[C@@H]4CC(C)=CC5(O[C@H](C[C@@](C)(O)C(=O)OC)CC[C@H]5O)O4)O3)CC[C@H]2O[C@@H]1[C@@H](O)C[C@H](C)[C@H]1OC2(CCCCO2)CC[C@H]1C (stereo partly specified)	6.9	-5.7	-12.8	1.5	·	·	-2.2%
Cn1ncc([N+](=O)[O-])c1C(=O)NCc1ccccc1	-0.4	-0.4	-9.1	-14.5	-3.6%	7.8	-1.2%
O=C(COC(=O)c1cccc(S(=O)(=O)N2CCCC2)c1)Nc1ccccc1Cl	-6.7	-4.4	-12.9	4.5	·	3.0	-1.2%
COc1cccc(N(C(=O)c2nc3nccc(C)n3n2)c2nc3ccccc3s2)c1	-11.8	-5.7	-4.3	-7.2	15.5%	0.8	-0.1%
CCCCn1c(=O)c(Cc2ccccc2)c(O)c2ccccc21	-3.7	-4.4	4.9	-0.7	10.8%	3.2	0.3%
CCN(C(=O)Cn1c(=O)oc2cc(S(=O)(=O)N3CCCC3)ccc21)c1ccc(OC)cc1	-7.7	-5.1	-7.1	-2.2	3.8%	15.7	0.2%
CCOc1ccc(OCC)c(NC(=O)Nc2ccc3c(c2)N(C)C(=O)CS3)c1	-19.5	5.4	-1.0	-7.4	18.0%	-7.9	0.8%
O=C1NC(=O)C(CSc2ccccc2)(c2ccccc2)N1 (stereo unspecified)	1.6	-3.4	-3.9	1.5	·	·	-0.1%
O=C(COc1ccc(Cl)cc1)NNC(=S)NCc1ccccc1	8.4	-6.4	-43.2	-13.8	18.7%	-2.7	0.0%
CCN(CC)CCCNC(=O)c1cc(Nc2ccc(OC)cc2)nc2ccccc12	-12.9	-2.7	-11.8	-3.9	-4.4%	3.1	2.0%
CC(=O)Nc1ccc(NC(=O)c2ccc([N+](=O)[O-])cc2Cl)cc1	4.1	0.3	-2.4	-2.8	-6.1%	-6.0	1.9%
CCn1c(SCC(=O)c2cc(OC)ccc2OC)nnc1C(C)C	-0.5	-2.0	-16.9	5.7	?	-14.4	-0.4%
COc1ccc(-n2c(SCC(=O)NCC3CCCO3)nc3ccccc3c2=O)cc1Cl (stereo unspecified)	0.5	2.9	6.5	-0.8	·	·	0.1%
CC(=O)NC(O)C(=O)c1ccco1 (stereo unspecified)	-0.7	-1.5	-3.9	-2.0	17.3%	3.8	2.1%[38.3 µM]
Cc1ccc(-c2c(C)n([O-])c3c([n+]2=O)CCC3)cc1	13.9	1.8	0.6	-11.9	-2.0%	8.1	2.9%
O=C(N/N=C/c1c[nH]c2ccccc12)c1ccc(O)c(O)c1	?	-2.7	-8.9	-15.6	-10.0%	0.9	0.0%
O=C(CS(=O)(=O)c1ccc(F)cc1)NCc1ccccc1	11.2	-6.4	0.4	0.5	·	0.0	2.8%
O=[N+]([O-])c1cccc(CN2CCN(c3ncccn3)CC2)c1	10.2	?	8.3	5.0	-12.1%	-7.2	0.4%
CCOc1ccccc1OCCCC(=O)ON=C(N)c1ccccc1	23.7	-3.5	-1.1	·	·	-6.2	2.9%
COc1cccc(CN2CCNC(=O)C2CC(=O)NC2CCCC2)c1OC (stereo unspecified)	-1.5	1.0	-7.4	-2.8	8.7%	12.6	6.3%
COc1ccc(CCNC(=O)c2cnn3c(C(F)F)cc(C)nc23)cc1OC	-10.9	5.3	-1.8	-1.9	24.6%	?	0.1%
CC1(C)NC(=O)N(CC(=O)OCC(=O)Nc2c(Br)cc([N+](=O)[O-])cc2Br)C1=O	6.1	?	8.5	1.7	·	·	-0.4%
CCCCC(=O)NC1(C(F)(F)F)C(=O)N(Cc2ccco2)C(C)=C1C(=O)OC (stereo unspecified)	-0.9	-1.9	-2.9	0.4	-14.2%	-3.4	9.8%[38.3 µM]
CC(C)CC(=O)N/N=C/c1c(N)n(C)c(=O)n(C)c1=O	-8.4	-1.5	-5.2	-9.7	1.6%	-1.0	0.0%
Cc1ccc(N(C(=O)c2ccc(S(=O)(=O)N3CCOCC3)cc2)C2C=CS(=O)(=O)C2)cc1C (stereo unspecified)	-1.1	-2.2	-1.2	1.6	13.7%	-3.3	-1.6%
COc1ccc(Cc2nc3ccccc3n2C)cc1	9.0	-3.4	-7.3	-4.6	3.0%	2.5	0.9%
COc1ccc(C2=NN(c3ccccc3)C(c3cn(CCC(=O)O)nc3-c3ccccc3)C2)cc1 (stereo unspecified)	18.8	-8.6	-4.4	-2.7	-1.6%	5.4	0.2%
Cc1nn(C)c(C)c1CNC(=O)c1nn2c(c1Cl)NC(c1cccs1)CC2C(F)(F)F (stereo unspecified)	-3.2	2.5	6.6	14.1	11.5%	1.1	0.0%[38.3 µM]
C(=N\Nc1nc(Nc2ccccc2)nc(Nc2ccccc2)n1)/c1cccnc1	-4.4	-1.3	7.2	-2.1	5.5%	-6.8	0.0%
CC(NCc1cccs1)C(=O)NC1CCCCC1 (stereo unspecified)	5.0	14.4	-3.0	-2.0	?	20.5	-1.1%
CCOC(=O)C1CCN(C(=O)COC(=O)c2cccc(F)c2)CC1	3.7	-2.3	-2.1	6.9	5.8%	-4.7	1.3%
Nc1nnc(-c2cccnc2)s1	-3.5	1.9	8.8	2.5	4.1%&8.3%	-4.1&-3.6	0.8%
O=C(CNC(=O)c1cccs1)OCC(=O)c1ccccc1	4.0	-1.0	-4.9	3.4	3.2%	-6.2	0.7%[38.3 µM]
Cc1ccc(CNC(=O)C2CCCN(S(=O)(=O)N3CCC(C)CC3)C2)cc1 (stereo unspecified)	9.0	2.9	2.5	4.4	21.8%	-20.3	1.5%
O=C(CCc1nnc2ccc(N3CCC4(CC3)OCCO4)nn12)N1CCCCC1	2.0	0.0	-1.0	7.5	12.0%	4.5	1.7%
CC(C)(C)c1ccc(/C=C/C(=O)NCCCN2CCOCC2)cc1	7.9	4.2	4.7	5.7	?	-8.9	1.0%
The listing continues:
SMILES	Six1-Eya2 blk	D2 agonist	D2 PAM	CtBP-E1A blk	Sfp inh	TRPV1 PAM	PINK1 expr mod
COc1ccc(C(C#N)c2nc3ccccc3nc2Cl)cc1 (stereo unspecified)	-2.4	-1.6	-12.3	3.0	-6.7%	-13.2	-0.7%
COCCCn1c(=O)/c(=C/c2ccccc2OC(C)C)s/c1=C(\C#N)C(=O)Nc1ccc(C(=O)O)cc1	-1.1	-0.8	0.3	1.0	·	·	2.1%
COc1cccc(C(=O)N(Cc2cccs2)C2CCS(=O)(=O)C2)c1 (stereo unspecified)	6.2	-2.1	-3.8	1.4	15.3%	22.8	-2.0%
Cn1nc(C(F)(F)F)c(-c2ccccc2)c1NC(=O)CCC(=O)O	2.6	3.1	-0.4	1.1	20.0%	9.3	0.1%
S=c1c2c(nc3nc[nH]n13)CCC2	-12.5	-6.8	-28.5	·	14.1µM*	15.6	0.6%
CSc1nsc(SC)c1NC(=O)OC1CCCCC1	4.9	-4.1	-20.2	-0.3	56.2µM*	-5.6	1.0%
Fc1ccc(CNC2CCN(Cc3ccccc3)CC2)cc1	13.8	-2.2	-53.1	·	-6.7%	-0.6	-1.7%
O=C(Nc1ccc2c(c1)OCCO2)c1cccnc1Oc1ccccc1	3.0	-1.8	-14.1	·	8.9%	-0.1	2.5%
CCCS(=O)(=O)C(=C1Nc2ccccc2N1)S(=O)(=O)CCC	-0.6	-3.8	-6.7	9.6	5.3%	?	-2.0%
CC(NS(=O)(=O)c1ccc(Cl)cc1)C(=O)NCCC1=CCCCC1 (stereo unspecified)	1.6	-2.7	-2.6	-24.6	7.5%	-0.9	-0.6%
CCCCCCC1/C(=N/O)CCC1C(=O)OC (stereo unspecified)	5.1	0.2	13.6	7.0	20.4%	-14.2	-1.4%
Cc1cc(Cl)ccc1OCC(=O)Nc1ccccc1NS(=O)(=O)c1cccs1	3.9	-3.5	-7.7	·	17.1%	7.1	5.6%
O=C(NN=C1CCCCCCCCCCC1)c1ccncc1	-5.0	-1.9	2.1	-5.0	-28.8%	-26.8	2.6%
Cc1ccc(S(=O)(=O)N2CCN(C)CC2c2ccccc2)cc1 (stereo unspecified)	5.7	13.3	-3.1	4.8	·	-7.6	-0.5%
